NPYLR7 agonist – mosquito NPYLR7 agonism; HEK293T NPYLR7/Galpha15, GCaMP6s calcium fluorescence; activation, % at 10 µM; 270,000 compounds, 0.15% hits; AID 1259423; in the data active = activation above about 40%;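 note: 0% = vehicle and 100% = reference agonist at the receptor; some compounds past the cut are filed as inactive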
NPYLR7 agonist max-min – further read-out of NPYLR7 agonist, marked with its call; activation, %; measured here: Max-Min RFU normalised activation; some inactives read as strong as hits;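 span of the calcium signal over five minutes; 0% = vehicle and 100% = native peptide agonist; compound fluorescence can raise it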
The depositor's hits bear a star. The list is partial, so the mix of outcomes need not match the whole.

What do the screens show for `O=NN(CCCl)C(=O)NCCCl`?
NPYLR7 agonist: 8; NPYLR7 agonist max-min: -8

What do the screens show for `CCOC(=O)N(C)c1c(CC)nc2c(OCCC3CCCCC3)cccn12`?
NPYLR7 agonist: 7; NPYLR7 agonist max-min: -7

What do the screens show for `COc1ccc(CCNC(=O)c2c(C)noc2-c2cccc(C(F)(F)F)c2)cn1`?
NPYLR7 agonist: 7; NPYLR7 agonist max-min: 13

Results for CCN(CC)C(=O)C1CCCN(C(=O)N[C@@H](C)c2ccccc2)C1 (some centres not stated) ?
NPYLR7 agonist: -5; NPYLR7 agonist max-min: -11

How did COc1ccc2[nH]cc(CCNC(N)=O)c2c1 do in these assays?
NPYLR7 agonist: 5; NPYLR7 agonist max-min: 4

Results for Cc1ccc(NC(=S)NC(=O)CC2CC(C)(C)OC2=O)cc1 (configuration not stated) ?
NPYLR7 agonist: 19; NPYLR7 agonist max-min: 17

What do the screens show for `O=C(COC(=O)C1CC2CCCC(C1)C2=O)NC(=O)NC12CC3CC(CC(C3)C1)C2` (configuration not stated)?
NPYLR7 agonist: 6; NPYLR7 agonist max-min: 3

How did CCCOc1ccc(N2C(=O)CC(N3CCOCC3)C2=O)cc1 (configuration not stated) do in these assays?
NPYLR7 agonist: -5; NPYLR7 agonist max-min: -8

Results for COC(=O)[C@@H]1C[C@@H](NC(=O)Nc2ccccc2)CN1CC1=CC[C@H]2C[C@@H]1C2(C)C ?
NPYLR7 agonist: 22; NPYLR7 agonist max-min: 12

Results for COc1ccc(Cn2cnc3cnc(-c4cccc(C(N)=O)c4)cc32)cc1OC ?
NPYLR7 agonist: 8; NPYLR7 agonist max-min: -3

What do the screens show for `COc1cc(C(=O)N(Cc2cccnc2)c2nc3c(F)cccc3s2)cc(OC)c1OC`?
NPYLR7 agonist: -9; NPYLR7 agonist max-min: -7

What do the screens show for `COCCOC(=O)C1=C(C)N(C)C(=S)NC1c1ccc(NC(=O)c2ccccc2OC)cc1` (configuration not stated)?
NPYLR7 agonist: 20; NPYLR7 agonist max-min: 23

How did COc1ccccc1CCNC(=O)CC1C(=O)NCCN1CC1CCCCC1 (configuration not stated) do in these assays?
NPYLR7 agonist: 3; NPYLR7 agonist max-min: -2

Results for NC(=O)c1c(NC(=O)C2CC3CCC2C3)sc2c1CCCC2 (configuration not stated) ?
NPYLR7 agonist: -2; NPYLR7 agonist max-min: -1

How did COc1cc(OC)cc(-c2cc3c(Nc4ccccn4)nccc3n2C)c1 do in these assays?
NPYLR7 agonist: -4; NPYLR7 agonist max-min: -7

What do the screens show for `O=C1C2CCCN2C(c2cccc(Cl)c2)N1c1nccs1` (configuration not stated)?
NPYLR7 agonist: 5; NPYLR7 agonist max-min: 4

Results for O=C(c1ccc2nc(C3CC3)oc2c1)N1CCC(c2nc3ccccc3o2)CC1 ?
NPYLR7 agonist: 10; NPYLR7 agonist max-min: 4

Results for Cc1cccc(NC(=O)CSc2nc(=O)n(CCCN3CCOCC3)c3c2CCCC3)c1 ?
NPYLR7 agonist: -5; NPYLR7 agonist max-min: -4

Results for O=C(CCCC(=O)n1nnc2ccccc21)OCC(Cl)=C(Cl)Cl ?
NPYLR7 agonist: -9; NPYLR7 agonist max-min: -11

Results for COc1ccc(C=C2SC(=S)NC2=O)cc1F ?
NPYLR7 agonist: 0; NPYLR7 agonist max-min: 0

What do the screens show for `O=C(NCCc1ccccc1)N1CCc2ccccc2C1`?
NPYLR7 agonist: -5; NPYLR7 agonist max-min: -16

What do the screens show for `COc1ccc(Cl)cc1-n1nc(C(C)C)nc1Cc1cnc(C)[nH]c1=O`?
NPYLR7 agonist: -2; NPYLR7 agonist max-min: -5

What do the screens show for `CCCCCC1CCC(c2ccc(-c3noc(-c4ccccc4Cl)n3)cc2)CC1` (configuration not stated)?
NPYLR7 agonist: -2; NPYLR7 agonist max-min: -8

What do the screens show for `CSCCC(NC(=O)c1ccc(Cl)cc1)C(=O)Nc1nnc(C)s1` (configuration not stated)?
NPYLR7 agonist: 7; NPYLR7 agonist max-min: 5

What do the screens show for `COc1ccc(N2C(=O)CSC2c2cc3c(cc2Br)OCO3)c(OC)c1` (configuration not stated)?
NPYLR7 agonist: -4; NPYLR7 agonist max-min: -1

How did CC(C)C(=O)NCCc1cc(Br)ccc1F do in these assays?
NPYLR7 agonist: 15; NPYLR7 agonist max-min: 5

How did O[C@@H]1C[C@@H]2C[C@H](c3ccccn3)OC[C@]2(O)[C@@H]1N1CCN(c2ccccc2)CC1 do in these assays?
NPYLR7 agonist: -1; NPYLR7 agonist max-min: 9

Results for Cc1cc(O)cc(=O)n1CCCn1ccnc1 ?
NPYLR7 agonist: 3; NPYLR7 agonist max-min: 6

What do the screens show for `COc1cccc(-c2cc(C(=O)Nc3cc(C)cc(C)c3)c3ccccc3n2)c1`?
NPYLR7 agonist: 2; NPYLR7 agonist max-min: 4

Results for Cc1ccoc1C(=O)N1CCC2(CC1)CC(C(=O)O)N(C)C2 (configuration not stated) ?
NPYLR7 agonist: 3; NPYLR7 agonist max-min: 6

What do the screens show for `Cc1ccc2[nH]c(O)c(N=Nc3ccccc3[N+](=O)[O-])c2c1Br`?
NPYLR7 agonist: -2; NPYLR7 agonist max-min: -7

How did O=C(CC1CSc2nc3c(c(=O)n21)CCCC3)Nc1ccncc1 (configuration not stated) do in these assays?
NPYLR7 agonist: -1; NPYLR7 agonist max-min: -2

What do the screens show for `CCC(=O)NCCN1CCn2cc(OC)c(=O)cc2C1=O`?
NPYLR7 agonist: 14; NPYLR7 agonist max-min: 11

What do the screens show for `COc1cccc2c1OC(c1ccccn1)N1N=C(c3ccccc3)CC21` (configuration not stated)?
NPYLR7 agonist: 3; NPYLR7 agonist max-min: 0

Results for COc1ccc(S(=O)(=O)N(CCCN2CCOCC2)CC(=O)N(Cc2ccc3c(c2)OCO3)Cc2ccco2)cc1 ?
NPYLR7 agonist: -7; NPYLR7 agonist max-min: -6

Results for CN1C[C@H](NS(=O)(=O)c2cc(Cl)ccc2Cl)C[C@H]1CO ?
NPYLR7 agonist: 7; NPYLR7 agonist max-min: 6

How did Cc1ccc(-n2c(C)cn3c4c(=O)n(CC(=O)C(C)(C)C)c(=O)n(C)c4nc23)cc1Cl do in these assays?
NPYLR7 agonist: 7; NPYLR7 agonist max-min: 10

What do the screens show for `O=C(NCCc1ccccn1)c1coc(CN(Cc2ccc(F)cc2)Cc2ccccc2Cl)n1`?
NPYLR7 agonist: 9; NPYLR7 agonist max-min: 8

How did COCCn1c(C)cn2c3c(=O)n(Cc4cc(C)ccc4C)c(=O)n(C)c3nc12 do in these assays?
NPYLR7 agonist: 17; NPYLR7 agonist max-min: 11

What do the screens show for `CN(C)C(=O)C(Nc1ccc(Br)cc1)c1ccccc1` (configuration not stated)?
NPYLR7 agonist: 2; NPYLR7 agonist max-min: 1

What do the screens show for `Cc1nc(N(C)C)ncc1C(=O)N[C@@H]1c2ccccc2C2(CCNCC2)[C@H]1O`?
NPYLR7 agonist: 35; NPYLR7 agonist max-min: 19

How did Cc1ccc(-c2nc3ccc(C)cn3c2N)cc1 do in these assays?
NPYLR7 agonist: -9; NPYLR7 agonist max-min: -5

What do the screens show for `CCOC(=O)C(=O)N(C)c1c(CC)nc2c(OCc3ccccc3C(=O)OC)cccn12`?
NPYLR7 agonist: 0; NPYLR7 agonist max-min: 1

How did NS(=O)(=O)c1ccc(N2CCN(c3cccc(Cl)c3)CC2)nc1 do in these assays?
NPYLR7 agonist: -12; NPYLR7 agonist max-min: -13

What do the screens show for `c1ccc2sc(NC3=NCN(CC4CCCO4)CN3)nc2c1` (configuration not stated)?
NPYLR7 agonist: 10; NPYLR7 agonist max-min: 4

How did c1cc2c(cc1N1COc3cc4c(cc3C1)OCO4)OCCO2 do in these assays?
NPYLR7 agonist: 10; NPYLR7 agonist max-min: 1

What do the screens show for `Cc1ccc2c(CC(=O)NCCc3nnc4n3CCCCC4)coc2c1C`?
NPYLR7 agonist: 7; NPYLR7 agonist max-min: 1

How did Cc1cc(C)c2c(CC(=O)N3C[C@H]4C[C@H](O)[C@@H](O)C[C@H]4C3)coc2c1C do in these assays?
NPYLR7 agonist: 20; NPYLR7 agonist max-min: 8

Results for CC(C)CNC(=O)CN1C(=O)N(C)C2(CCC(C)CC2)C1=O (configuration not stated) ?
NPYLR7 agonist: 2; NPYLR7 agonist max-min: -2

Results for CCC(NC(=O)c1cnccn1)c1ccc(C)cc1 (configuration not stated) ?
NPYLR7 agonist: -2; NPYLR7 agonist max-min: -2

How did COc1ccc(/C=C2\Oc3c(ccc4c3CN(Cc3ccncc3)CO4)C2=O)cc1OC do in these assays?
NPYLR7 agonist: 83*; NPYLR7 agonist max-min: 68*

Results for COCCOC(=O)c1sc(=S)n(CCOC)c1N ?
NPYLR7 agonist: 14; NPYLR7 agonist max-min: 24

Results for CN(C)C(=O)C[n+]1ccc2ccccc2c1 ?
NPYLR7 agonist: 1; NPYLR7 agonist max-min: 4

Results for Cc1cc(-n2c(SCC(=O)O)nnc2C2CC2)n(C)n1 ?
NPYLR7 agonist: -5; NPYLR7 agonist max-min: -6

How did O=C(NCc1nnc2n1CCCCC2)N1CCc2ccccc2C1 do in these assays?
NPYLR7 agonist: 7; NPYLR7 agonist max-min: 6

How did CC1(C(=O)NS(=O)(=O)c2ccccc2OC(F)(F)F)CCN1C(=O)CC1CC1 (configuration not stated) do in these assays?
NPYLR7 agonist: 1; NPYLR7 agonist max-min: -1

What do the screens show for `Cc1cccc(Nc2ncccc2C(=O)N2CCSC2)c1C`?
NPYLR7 agonist: -6; NPYLR7 agonist max-min: -11

What do the screens show for `O=C(Nc1cccc2cccnc12)c1cc(S(=O)(=O)N2CCCCC2)ccc1Cl`?
NPYLR7 agonist: -5; NPYLR7 agonist max-min: -5

Results for CCC(=O)c1ccc(OCC(=O)N2C[C@H](OC(C)C)[C@@H](O)C2)cc1 ?
NPYLR7 agonist: -1; NPYLR7 agonist max-min: 12

How did CCOC(=O)c1cnc(-c2ccc(OC)cc2)nc1N1CCC1 do in these assays?
NPYLR7 agonist: -1; NPYLR7 agonist max-min: 1

What do the screens show for `N=c1oc2ccc(Cl)cc2cc1C(=O)Nc1ccc(F)cc1`?
NPYLR7 agonist: -9; NPYLR7 agonist max-min: -13

How did Cc1ccc2oc(=O)n(CCC(=O)N3CCC4(CCCN(C)C4=O)C3)c2c1 (configuration not stated) do in these assays?
NPYLR7 agonist: 11; NPYLR7 agonist max-min: 3

Results for CC1CCN(c2ccc(NC(=O)c3cccc([N+](=O)[O-])c3)cc2C(=O)NC2CC2)CC1 ?
NPYLR7 agonist: -1; NPYLR7 agonist max-min: 14

Results for Cc1ccc(CN(CCc2c[nH]c3ccccc23)C(=O)CN(C(=O)c2cccc(Br)c2)C2CC2)cc1 ?
NPYLR7 agonist: 20; NPYLR7 agonist max-min: 24

How did CC(C)c1ccc(/C=C/c2nn3c(-c4ccncc4)nnc3s2)cc1 do in these assays?
NPYLR7 agonist: 2; NPYLR7 agonist max-min: 0

What do the screens show for `O=C(Cn1nnnc1CN1CCCC1)NC1CCN(Cc2ccccc2)CC1`?
NPYLR7 agonist: -1; NPYLR7 agonist max-min: -7

Results for c1coc(Cn2ccnc2-c2ccc(-c3ccn[nH]3)s2)c1 ?
NPYLR7 agonist: 29; NPYLR7 agonist max-min: 11

What do the screens show for `CCCCc1nc(N(C)Cc2ccco2)c2c3c(sc2n1)CCCC3`?
NPYLR7 agonist: -3; NPYLR7 agonist max-min: -1

What do the screens show for `CC(=O)c1ccccc1NC(=O)C(C)N1CCC(O)(C(F)(F)F)C1` (configuration not stated)?
NPYLR7 agonist: -7; NPYLR7 agonist max-min: -6

Results for COC(=O)c1ccccc1NC(=O)Nc1cnn(Cc2ccc(Cl)cc2Cl)c1 ?
NPYLR7 agonist: 4; NPYLR7 agonist max-min: 3

How did Cc1ccc2oc(-c3cc(NC(=O)c4cc(Cl)ccc4Cl)ccc3O)nc2c1 do in these assays?
NPYLR7 agonist: 13; NPYLR7 agonist max-min: 13

How did COc1cc(C)c(NC(=O)C2(c3ccc(Cl)cc3)CC2)cc1OC do in these assays?
NPYLR7 agonist: 0; NPYLR7 agonist max-min: 21

What do the screens show for `Cc1ccnc(SCc2cc(=O)c(OC(=O)C(c3ccccc3)c3ccccc3)co2)n1`?
NPYLR7 agonist: -12; NPYLR7 agonist max-min: -12

Results for Cc1ccc(-n2nnnc2/C=C/N2CCN(c3ccc(F)cc3)CC2)cc1 ?
NPYLR7 agonist: 2; NPYLR7 agonist max-min: 8

A draw from above in order of number of heavy atoms, highest first:
Results for Cc1ccc(CN(CCc2c[nH]c3ccccc23)C(=O)CN(C(=O)c2cccc(Br)c2)C2CC2)cc1 ?
NPYLR7 agonist: 20; NPYLR7 agonist max-min: 24

What do the screens show for `Cc1ccnc(SCc2cc(=O)c(OC(=O)C(c3ccccc3)c3ccccc3)co2)n1`?
NPYLR7 agonist: -12; NPYLR7 agonist max-min: -12

Results for CC1CCN(c2ccc(NC(=O)c3cccc([N+](=O)[O-])c3)cc2C(=O)NC2CC2)CC1 ?
NPYLR7 agonist: -1; NPYLR7 agonist max-min: 14

How did Cc1ccc2oc(-c3cc(NC(=O)c4cc(Cl)ccc4Cl)ccc3O)nc2c1 do in these assays?
NPYLR7 agonist: 13; NPYLR7 agonist max-min: 13

How did Cc1ccc2oc(=O)n(CCC(=O)N3CCC4(CCCN(C)C4=O)C3)c2c1 (configuration not stated) do in these assays?
NPYLR7 agonist: 11; NPYLR7 agonist max-min: 3

How did CC(C)c1ccc(/C=C/c2nn3c(-c4ccncc4)nnc3s2)cc1 do in these assays?
NPYLR7 agonist: 2; NPYLR7 agonist max-min: 0

What do the screens show for `CC(=O)c1ccccc1NC(=O)C(C)N1CCC(O)(C(F)(F)F)C1` (configuration not stated)?
NPYLR7 agonist: -7; NPYLR7 agonist max-min: -6

What do the screens show for `N=c1oc2ccc(Cl)cc2cc1C(=O)Nc1ccc(F)cc1`?
NPYLR7 agonist: -9; NPYLR7 agonist max-min: -13

Results for c1coc(Cn2ccnc2-c2ccc(-c3ccn[nH]3)s2)c1 ?
NPYLR7 agonist: 29; NPYLR7 agonist max-min: 11

Taken from the results shown, 2 compounds:
What do the screens show for `O=NN(CCCl)C(=O)NCCCl`?
NPYLR7 agonist: 8; NPYLR7 agonist max-min: -8

What do the screens show for `CCOC(=O)N(C)c1c(CC)nc2c(OCCC3CCCCC3)cccn12`?
NPYLR7 agonist: 7; NPYLR7 agonist max-min: -7

Bioassay records (PubChem)
